Rce1 inhib: yeast Rce1p protease inhibitors, primary screen, biochemical, fluorescence, cell-free homogeneous; CAAX prenyl protease 2 (Saccharomyces cerevisiae (strain ATCC 204508 / S288c)), Q03530; yeast membranes, quenched prenylated peptide cleavage fluorescence; calls only; 0.27% of 290,000 active; AID 2563, 2010;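 active = fall in fluorescence gain of 50% or more versus controls, with final raw signal at or below 3038400; inconclusive = same 50% fall but final raw signal above 3038400; inactive = fall in fluorescence gain under 50%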;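 note: plate controls were neutral control wells for no effect and wells lacking membranes for full effect; tested at 10 µM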
Target sequence (Q03530 whole entry, looked up): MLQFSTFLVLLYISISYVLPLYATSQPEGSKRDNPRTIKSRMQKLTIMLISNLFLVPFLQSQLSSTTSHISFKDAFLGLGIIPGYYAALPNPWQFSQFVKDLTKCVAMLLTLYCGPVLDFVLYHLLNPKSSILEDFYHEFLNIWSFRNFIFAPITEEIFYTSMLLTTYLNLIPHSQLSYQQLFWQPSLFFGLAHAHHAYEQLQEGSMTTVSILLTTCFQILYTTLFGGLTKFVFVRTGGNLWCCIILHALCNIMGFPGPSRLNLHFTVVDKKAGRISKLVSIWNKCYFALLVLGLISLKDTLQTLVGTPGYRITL
UUG fidelity: modulators of yeast start codon fidelity, primary screen, whole organism, S. cerevisiae, single point, plate reader | S. cerevisiae UUG-firefly luciferase reporter, luminescence/redox ratio | activity score, % at 18.7 µM | 0.13% of 350,000 active;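 active = replicate mean at a twofold rise or more, about +100% in these data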;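 note: firefly luciferase made from a UUG start codon reports start codon fidelity; reporter light over untreated wells divided by growth signal over untreated wells; some hits fall short of that in this replicate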
CSC inhib: cancer stem cell viability inhibitors, primary screen, luminescence | cancer stem cell-like cells viability | inhibition, % at 7.5 µM | 1.1% of 300,000 active;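 active = mean at 75% or more and at least half the replicates too; inconclusive = mean and replicates disagree; tested in HMLE shEcad cells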;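 note: 0% = median of negative and 100% = median of positive control wells; the first replicate is given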
HIV Env fusion: inhibitors of HIV-1 Env-driven cell-cell fusion, primary screen, HeLa-JRFL effector, CEM21 target cells, luciferase; 1.1% of 360,000 active; inhibition, % at 12.3 µM;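 active = mean replicate inhibition score of at least 50 and every replicate individually at or above 50; inconclusive = only one of the two criteria met; inactive = mean below 50 and not all replicates reaching 50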;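 note: 0% = plate neutral controls and 100% = maraviroc near 300 nM; one replicate is shown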
PABP FP inh: PABP poly(A) RNA binding inhibitors, primary screen, biochemical, fluorescence polarization, uHTS; Polyadenylate-binding protein 1 (Homo sapiens), P11940; inhibition, % at 35 µM; 1% of 290,000 active;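 active = 50% or more with normal probe brightness, or confirmed in later tests; inconclusive = above 50% with abnormal brightness, or retests that disagree; inactive = below 50% or failed in later tests; about a fifth of its hits are not listed in these tables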;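 note: calls also rest on retests at 20 µM and on dose response follow-up; controls were probe without protein and protein plus probe with vehicle; some compounds called inactive have numbers as strong as hits; many hits fall short of the cut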
eIF4H inh: human eIF4H binding inhibitors, primary screen, translation initiation inhibitor project, biochemical, uHTS, fluorescence polarization; Eukaryotic translation initiation factor 4H (Homo sapiens), Q15056; eIF4H fluorescence polarization binding assay; inhibition, % at 35 µM; 0.94% of 290,000 active;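 active = 50% or more with normal probe brightness, or confirmed in later tests; inconclusive = above 50% with abnormal brightness, or retests that disagree; inactive = below 50% or failed in later tests; about a fifth of its hits are not listed in these tables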;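 note: calls also rest on retests at 20 µM and on dose response follow-up; 0% = protein and probe with vehicle and 100% = probe without protein; strong numbers were not always called active; many hits fall short of the cut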
MT1-MMP act inh: blockers of MT1-MMP proenzyme processing, primary screen, HT1080 RFP-PRO-GFP cells, GFP/RFP fluorescence; Matrix metalloproteinase-14 (Homo sapiens), P50281; GFP/RFP ratio fluorescence, overnight; percent of plate control window, DMSO zero; GFP/RFP ratio change, % at 20 µM; 0.061% of 360,000 active;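 active = GFP/RFP ratio change of at least 30% with cell ATP level not reduced by more than half and red fluorescence within 50% of control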; note: strong numbers were not always called active
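Assay system – RFP-PRO-GFP reporter HT1080 cells · Compound dosing – single dose of 20 µM compound, 1% DMSO final · Incubation – overnight compound exposure at 37 °C · Measure – GFP/RFP fluorescence ratio · Benchmarks – DMSO wells and RFP-L50D-GFP cells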
eIF4H inh retest: also measured in eIF4H inh; calls as there; inhibition, %; compound at 20 µM; confirmation average;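 mean of two retest wells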
PABP FP inh retest: also measured in PABP FP inh; calls as there; inhibition, %; compound at 20 µM; confirmation repeats;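 mean of two retest wells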
MT1-MMP act inh RFP: further read-out of MT1-MMP act inh, marked with its call; RFP signal change, %; measured here: RFP expression control read;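 0 = vehicle wells; hits needed this value within 50% of zero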
Active calls of the source: *; i = inactive; ? = inconclusive; . = no result given. Not all compounds are listed; rates above refer to the full screens.

Preview:
SMILES | Rce1 inhib | UUG fidelity | CSC inhib | HIV Env fusion | PABP FP inh | eIF4H inh | MT1-MMP act inh | MT1-MMP act inh RFP | others
COc1ccc(C2CC(=O)n3nc(C45CC6CC(CC(C6)C4)C5)nc3S2)cc1OC (stereo not given) | i | . | -10 | 1 | -14 | 9 | 4 | 7
CCC(=O)c1ccc(OCC(O)Cn2c(C)nc3ccccc32)cc1 (stereo not given) | . | 2 | 11 | ? | 2 | -8 | -3 | -15
O=C(O)/C=C\C(=O)NC1CCCCC1 | i | . | -14 | -39 | -9 | 2 | -3 | 3
O=C(O)CC(NC(=O)C1c2ccccc2Oc2ccccc21)c1ccc(OC2CCCC2)cc1 (stereo not given) | i | . | -4 | 18 | 7 | 6 | -1 | -2

Results, repeating the preview:
SMILES | Rce1 inhib | UUG fidelity | CSC inhib | HIV Env fusion | PABP FP inh | eIF4H inh | MT1-MMP act inh | MT1-MMP act inh RFP | others
COc1ccc(C2CC(=O)n3nc(C45CC6CC(CC(C6)C4)C5)nc3S2)cc1OC (stereo not given) | i | . | -10 | 1 | -14 | 9 | 4 | 7
CCC(=O)c1ccc(OCC(O)Cn2c(C)nc3ccccc32)cc1 (stereo not given) | . | 2 | 11 | ? | 2 | -8 | -3 | -15
O=C(O)/C=C\C(=O)NC1CCCCC1 | i | . | -14 | -39 | -9 | 2 | -3 | 3
O=C(O)CC(NC(=O)C1c2ccccc2Oc2ccccc21)c1ccc(OC2CCCC2)cc1 (stereo not given) | i | . | -4 | 18 | 7 | 6 | -1 | -2
Fc1cccc(Cc2c(-c3cccc(Cl)c3)nc3c(Cl)cc(C(F)(F)F)cn23)c1 | . | -21 | . | 4 | . | . | 1 | 5
O=C(Nc1cccc(Cl)c1Cl)C1CCCO1 (stereo not given) | . | -6 | -9 | -3 | 0 | 0 | 0 | 0
CCOCCCNC(=O)Cn1nc(-c2ccc(OC)c(OC)c2)ccc1=O | . | -16 | . | -7 | . | . | -3 | 4
CCCNCc1cc(Cl)c(OCC)c(Cl)c1 | i | -6 | -6 | -92 | -4 | -1 | . | .
CCCCN(CC)C(=O)CSc1nc2n[nH]c(C)c2c(=N)n1-c1cccc(C)c1 | i | . | 6 | -20 | -4 | -6 | 5 | -7
CCn1c(C)nc2cc(C(=O)N/N=C/c3cccc(O)c3O)ccc21 | i | . | -5 | -3 | 5 | 52 | -1 | -8 | eIF4H inh retest=45;PABP FP inh retest=46
CC(C)COc1cccc(C(=O)NC2(C)CCS(=O)(=O)C2)c1 (stereo not given) | i | -9 | -1 | 2 | -2 | -7 | -3 | -3
O=C(O)CCn1c(-c2ccccc2)cc2c1CCCC2=O | i | 3 | -15 | 8 | 14 | 12 | 0 | 4
Cc1nc(=S)c2c([nH]1)-c1ccccc1CC21CCCCC1 | i | -16 | 4 | 1 | -8 | 5 | -34 | -34
Cc1ccc(-c2nc(CS(=O)CC(=O)NCCN3CCCCC3C)c(C)o2)cc1 (stereo not given) | i | -17 | -12 | 7 | -2 | 6 | -13 | -3
CC1Cc2ccccc2N1CC(=O)Nc1ccc2c(c1)OCCCO2 (stereo not given) | . | -36 | -3 | . | . | . | -2 | 0
O=S(=O)(NCC(c1cccnc1)N1CCOCC1)c1cccs1 (stereo not given) | i | -17 | . | 6 | 9 | -1 | 0 | 0
O=C(c1cccc(NC2=NC3CS(=O)(=O)CC3S2)c1)N1CCN(c2ccc(F)cc2)CC1 (stereo not given) | i | -5 | . | -2 | 0 | -12 | 1 | 5
CCC(=O)Nc1cc(C(C)(C)C)ccc1C(C)=O | i | . | -16 | 0 | -4 | -4 | 4 | 6
O=C(NCc1ccco1)c1cc(-c2cccs2)nc2ccccc12 | i | . | 5 | -11 | 12 | 9 | 3 | 2
Cc1ccc(N2C(=O)CS/C2=N\C(=S)Nc2ccccc2)cc1 | i | -14 | 5 | -1 | -1 | -4 | 2 | -5
COc1ccccc1CNC(=O)[C@H](C)NC(=O)C1CCN(C(=O)[C@@H]2CCCN2C(=O)OC(C)(C)C)CC1 | . | -2 | -8 | . | 6 | 0 | -1 | 0
Cc1cc(C)c(C#N)c(SCC(=O)Nc2ccc(S(=O)(=O)Nc3ncccn3)cc2)n1 | i | -9 | 8 | 0 | 0 | -10 | 0 | 3
O=C1NC(=Nc2ccccc2Cl)S/C1=C\c1cccc([N+](=O)[O-])c1 | . | -8 | 47 | 7 | 1 | 20 | 4 | -9
CCN(CC)S(=O)(=O)c1cccc(NC(=S)NC(=O)/C=C/c2ccc(S(=O)(=O)N3CCOCC3)cc2)c1 | i | . | -2 | . | -1 | -2 | -10 | -2
CC(C)(C)C(=O)Nc1cc(S(=O)(=O)Nc2ccc(Cl)cc2)ccc1Cl | i | 5 | . | . | -1 | -3 | 0 | -18
CCOC(=O)N1CCC(NC(=O)C(Cc2ccccc2)NC(=O)c2ccco2)CC1 (stereo not given) | i | -13 | -11 | -80 | -7 | -10 | 1 | 1
CCc1ccc(OC)c(S(=O)(=O)N2CCN(C(=O)c3ccco3)CC2)c1 | i | 4 | -1 | 9 | 9 | -4 | 1 | 2
CC(=O)Nc1ccc(NC(=O)/C=C/c2ccccc2)cc1 | i | . | 1 | 4 | 5 | 0 | 4 | 4
CN(CC(=O)Nc1ccc(Cl)cc1)Cc1cc(=O)n2ccsc2n1 | i | . | 0 | -4 | -6 | -4 | 0 | -1
O/N=C/c1ccc(OCc2ccccc2)c(Cl)c1 | i | . | . | -134 | 2 | 2 | -6 | -3
NC(CO)c1csc(Nc2ccc(C(=O)c3ccccc3)cc2)n1 (stereo not given) | . | -8 | . | 9 | . | . | -1 | -3
CCOc1ccccc1-c1noc(CCC(=O)Nc2cccnc2)n1 | i | 8 | 0 | -11 | -7 | -18 | -7 | -4
O=C1N[C@@H](c2ccccc2)COC(=O)[C@H](Cc2ccc(F)cc2)CC/C=C/C[C@@H]1CC(=O)N(CCO)Cc1ccccc1 | . | -25 | 23 | 6 | . | . | -7 | -8
Cc1ccc(NC(=O)c2cc(C)nc3ccccc23)c(C)c1 | i | -10 | -20 | 6 | 2 | 6 | -2 | 0
CC(C)N1CCC(=NNC(=O)c2ccccc2[N+](=O)[O-])CC1 | i | . | -1 | . | 5 | 5 | -1 | 0
CC(C)(C)c1ccc(-c2nc3c(C#N)c(-c4ccc5c(c4)OCO5)ccn3n2)cc1 | i | -13 | -8 | 11 | 9 | 8 | 5 | -9
COc1ccc(Br)cc1CN(C)C(=O)c1ccncc1 | i | -9 | -5 | -5 | 17 | -7 | -4 | 3
CCc1ccc(CC2(O)CC(C)N(C)CC2C)cc1 (stereo not given) | i | . | 11 | -10 | -7 | -2 | 2 | 9
Cc1cc(Cl)cc2c(N=Nc3ccccc3C(=O)O)c(O)[nH]c12 | i | -11 | 22 | -29 | 24 | 3 | 2 | 0
CCC(C)N(C)Cc1cccc(C2(O)CCN(S(=O)(=O)c3ccc(F)cc3)CC2)c1 (stereo not given) | i | 9 | 69 | 15 | -4 | -3 | 2 | 3
C[C@]12c3[nH]c4ccc(Cl)cc4c3CCN1C(=O)[C@@H](CC(=O)NCC13CC4CC(CC(C4)C1)C3)C[C@@H]2C(=O)N1CCOCC1 | . | -11 | . | 35 | . | . | -15 | -24
O=c1cc(-c2ccc(O)cc2)oc2c([C@@H]3O[C@H](CO)[C@@H](O)[C@H](O)[C@H]3O)c(O)c([C@@H]3O[C@H](CO)[C@@H](O)[C@H](O)[C@H]3O)c(O)c12 | i | -10 | -11 | 16 | -2 | 1 | 4 | 5
Cc1ccccc1C(=O)NC1CC2CCCC(C1)N2Cc1ccccc1 (stereo not given) | i | -7 | -14 | -2 | 4 | 1 | -5 | 2
CC(=O)N/C(=C\c1ccccc1)C(=O)OCC(=O)N(C)C1CCS(=O)(=O)C1 (stereo not given) | . | -20 | -5 | -1 | . | . | -1 | 4
Cc1nc2ccc(-c3nc4ccc(N)cc4[nH]3)cc2[nH]1 | i | . | 8 | 0 | 36 | 23 | 8 | 1
O=C(Nc1ccc(F)c(Cl)c1)c1ccc2c(=O)n3c(nc2c1)CCCCC3 | i | -15 | 8 | 12 | -4 | -1 | 3 | -13
COc1ccc(CNC(=O)C2CCN(S(=O)(=O)N3CCCCC3)CC2)cc1 | i | -1 | -6 | -1 | -15 | -15 | -9 | -5
COc1ccc(C(=O)NNC(=O)c2cccc(S(=O)(=O)N3CCOCC3)c2)cc1 | . | -20 | -21 | -27 | . | . | -2 | 5
N#Cc1c(NCCN)nc(-c2ccco2)c2c1CCCC2 | i | . | 7 | . | 3 | 41 | 2 | 14
CC1(C)COC(c2cccn2Cc2ccccc2Cl)=N1 | i | -1 | -4 | -127 | 1 | -2 | 0 | -1
Cc1ccc(Cn2nc(C)cc2C(=O)Nc2ccc(Cl)cc2)cc1 | i | -18 | 0 | -12 | -12 | -8 | -4 | -5
CCCCCc1nc2c(=O)n(C)c3ccccc3c2o1 | i | 2 | -17 | 3 | 5 | -13 | . | .
CN1CCN(C(=O)CN(c2cccc(Br)c2)S(=O)(=O)c2ccccc2)CC1 | i | . | . | 7 | -2 | -6 | 4 | 1
Cc1ccc(S(=O)(=O)N(c2ccc(Br)cc2)C2C=CS(=O)(=O)C2)cc1 (stereo not given) | i | . | -6 | -3 | -1 | 5 | 0 | 5
CCOC(=O)Cn1c2c(c(-c3ccccc3OC)cc1=O)CCCC2 | i | -12 | 0 | 32 | 4 | 6 | -1 | -1
CCOC(=O)C1CCN(C(=O)CN(c2ccc(OC)cc2)S(=O)(=O)c2c(C)noc2C)CC1 | i | -9 | -11 | 18 | -12 | -6 | 1 | 7
COc1ccc(NCC(=O)n2c(C)c(C)c3ccccc32)cc1OC | i | . | 4 | 13 | 3 | -5 | 4 | 10
O=C(COC(=O)c1ccc(O)cc1O)c1ccc2c(c1)OCO2 | i | -36 | 5 | 15 | -10 | 1 | 0 | -1
COC(=O)Cn1nc(C)c2ccccc2c1=O | i | -9 | -8 | -7 | -10 | -13 | 3 | 1
Cc1cc(C)c(S(=O)(=O)n2nc(C)c(Br)c2C)c(C)c1 | i | -19 | -21 | . | -4 | -9 | -3 | -6
(list continues)
SMILES | Rce1 inhib | UUG fidelity | CSC inhib | HIV Env fusion | PABP FP inh | eIF4H inh | MT1-MMP act inh | MT1-MMP act inh RFP | others
Cc1c(CNC(=O)C2CC2)c(-n2cccc2)n(Cc2ccccc2)c1C | i | . | 13 | 9 | 4 | 0 | 1 | 2
O=C1CC(N(C(=O)c2ccco2)c2ccc(F)cc2)C(=O)N1c1ccc(F)cc1 (stereo not given) | i | 2 | -3 | 3 | -6 | -6 | -1 | 5
Nc1c(SCCC(=O)O)ccc2c1C(=O)c1ccccc1C2=O | i | -17 | 31 | -12 | 27 | -6 | 14 | 27
COc1ccc(C(=O)CSc2nnnn2Cc2ccccc2)cc1 | i | -17 | -7 | -33 | 1 | 3 | 2 | 3
OCCCNc1cc(-c2ccccc2)nc2cc(-c3ccc(F)cc3)nn12 | i | -6 | 83* | 2 | 0 | -11 | 6 | -4
